LANA-H2B inh: blocks KSHV LANA binding to histone H2A/H2B; Q9QR71; cell-free LANA-H2A/H2B peptide, fluorescence polarization; inhibition, % (no concentration beside the values); hit rate 0.6% among 320,000; in the data active = inhibition mostly above about 10%, no sharp cut-off; inactive = mostly below about 6.7%;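 note: stock transfer was 7.5 nL into about 10 µL; 0% = median of vehicle wells and 100% = median of positive control wells; one replicate is shown; the record names a cut of 25% in any replicate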
UCH37 inh: blocks the human deubiquitinase UCH37; Q9Y5K5; purified proteasome/UCH37, Ub-AMC cleavage fluorescence; inhibition, % (test concentration not listed); hit rate 0.33% among 330,000; AID 588478;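 active = mean of two replicates above 20%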;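 note: 0% = compound-free wells with enzyme and 100% = wells lacking proteasome; stock transfer was 100 nL into about 20 µL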
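assay system = human UCH37 enzyme supplied as purified proteasome complex | amount = proteasome at 0.15 nM in the dispensed enzyme solution | schedule = 30 min compound-proteasome preincubation then 25 min substrate reaction, room temperature | measured by = fluorescence, ex 355 nm, em 460 nm | benchmarks = no-proteasome wells (full inhibition) and compound-free wells (no inhibition)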
ALR inh: human ALR oxidase inhibition via reduced H2O2 | inhibition, % (no concentration beside the values) | P55789 | purified ALR, DTT oxidation, H2O2 HRP-luminol luminescence | hit rate 3.8% among 290,000;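 active = mean and each replicate at 75% or more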;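 note: stock transfer was 7.5 nL into about 7.5 µL; 0% = neutral wells and 100% = wells with inactivated enzyme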
Target sequence (P55789 whole entry, looked up): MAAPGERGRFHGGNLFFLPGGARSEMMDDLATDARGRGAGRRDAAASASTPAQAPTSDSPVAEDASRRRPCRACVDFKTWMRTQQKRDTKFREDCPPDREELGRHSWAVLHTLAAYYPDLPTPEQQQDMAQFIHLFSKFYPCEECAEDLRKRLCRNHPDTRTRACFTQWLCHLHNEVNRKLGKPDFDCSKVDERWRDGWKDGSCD
E coli growth: inhibitors of Escherichia coli growth | OD600, 23 h; active compounds read low | OD600 absorbance (concentration not given with the values) | hit rate 0.21% among 330,000;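 active = OD600 absorbance below the run mean of sample wells minus 3.6 SD, in any replicate, cut at about 0.56 in these data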;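 note: stock transfer was 300 nL into about 60 µL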
FGF22 binding: FGF22 (human) thermal shift binding. Q9HCT0. recombinant FGF22 thermal shift, SYPRO orange fluorescence; percent of sucrose octasulfate shift, DMSO zero. calls only at 9.99 µM. hit rate 1.5% among 340,000. AID 651658;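 active = melting point raised past a set limit in the mean and every replicate; three in four hits are not shown here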
Target sequence (Q9HCT0 whole entry, looked up): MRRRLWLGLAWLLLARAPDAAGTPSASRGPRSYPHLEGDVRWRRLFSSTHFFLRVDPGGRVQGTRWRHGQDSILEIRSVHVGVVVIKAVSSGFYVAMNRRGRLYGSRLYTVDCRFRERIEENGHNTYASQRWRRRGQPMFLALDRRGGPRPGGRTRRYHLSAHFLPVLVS
HNF4A DNA FP: change in binding of human HNF4 alpha to DNA. activity change, % at 10 µM. P41235. hit rate 0.3% among 360,000. AID 1224865. HNF4a-FITC DNA binding, fluorescence polarization, 1 h; in the data active = activity change above about 30%, passing the limit was not always enough;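 note: controls were the assay level and a saturating level of protein; the project sought stronger binding though the title names inhibitors; some compounds called inactive have numbers as strong as hits; positive values seem to mean higher polarization but the record does not say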
Beta2AR agonist: agonists of human beta-2 adrenergic receptor inducing internalization. AID 504454. response, % (test concentration not listed). P07550. Am2.2-beta2AR cells, FAP receptor internalization, flow cytometry; reference of the scale not given here. hit rate 0.43% among 340,000;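 active = response above a set limit, near 3 SD of response in nonfluorescent compounds, cut at about 42% in these data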;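 note: stock transfer was 100 nL into about 11 µL; a reference agonist was the positive control; negative values mostly stem from fluorescent compounds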
Target sequence (P07550 whole entry, looked up): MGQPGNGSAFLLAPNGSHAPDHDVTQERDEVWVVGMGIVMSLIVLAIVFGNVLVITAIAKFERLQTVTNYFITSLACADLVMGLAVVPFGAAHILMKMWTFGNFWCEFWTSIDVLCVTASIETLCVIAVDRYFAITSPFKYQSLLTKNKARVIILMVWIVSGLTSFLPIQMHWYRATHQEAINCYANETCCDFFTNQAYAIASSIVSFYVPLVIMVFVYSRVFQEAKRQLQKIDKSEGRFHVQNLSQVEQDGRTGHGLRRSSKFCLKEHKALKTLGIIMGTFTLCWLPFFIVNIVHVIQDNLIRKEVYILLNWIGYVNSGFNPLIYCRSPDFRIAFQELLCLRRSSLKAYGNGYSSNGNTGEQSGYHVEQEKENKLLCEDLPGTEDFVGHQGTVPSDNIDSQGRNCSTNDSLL
Numbers without * were called inactive; i = inactive; . = not tested or not shown; + = active, no number. This is a subset; the hit share may differ from the screen's.

SMILES	LANA-H2B inh	UCH37 inh	ALR inh	E coli growth	FGF22 binding	HNF4A DNA FP	Beta2AR agonist
Cc1cc(C)nc(SCc2nnc(SCC(=O)Nc3ccccc3C)n2Cc2ccco2)n1	-0.2	0.0	.	0.672	.	1.0	2.3
O=S1(=O)CC/C(=N/Nc2ccc(C(F)(F)F)cn2)c2cc(F)ccc21	-3.9	.	.	.	.	-3.5	-11.0
CC1CN(CCCCOc2ccc3ccccc3c2)CC(C)O1 (stereo unspecified)	-1.9	3.7	-11.0	0.685	i	0.0	-0.6
NC(=O)Nc1ccc(C(=O)OCC(=O)NC2CCCCC2)cc1	2.8	-2.0	3.1	0.668	i	-1.6	-0.9
CCOC(=O)CSc1nnc(-c2cccnc2)n1C	-3.7	3.4	-1.3	0.657	i	-0.3	-3.3
COc1cc2c(cc1OC)CN(C(=O)C1(c3ccccc3)CC1)CC2	1.3	7.1	-6.7	0.659	.	2.5	-0.5
CCNC(=O)/C(C#N)=C/c1c(N2CCN(Cc3ccc4c(c3)OCO4)CC2)nc2c(C)cccn2c1=O	4.2	1.7	-20.7	0.698	i	-1.9	9.0
COC(=O)c1ccc(NC(=O)Cn2nnc3ccccc32)cc1	5.7	2.3	5.1	0.749	.	-3.8	-0.5
O=S(=O)(NCCOc1cccc2cccnc12)c1ccc(F)cc1	-2.6	-2.3	-6.9	0.696	i	-1.1	-7.0
FC(F)(F)c1ccc(CN2CCN(Cc3ccco3)CC2)cc1	1.1	2.4	-2.8	0.713	i	0.5	-3.8
Cc1cc(C(=O)NCC2CCCCC2)ccc1[N+](=O)[O-]	-6.0	0.3	-0.3	0.674	.	-0.8	-8.3
CC(=O)c1c(C)[nH]c(C(=O)OCC(=O)NCCC2=CCCCC2)c1C	0.2	3.0	-5.8	0.604	.	0.5	8.1
COc1ccc(C2=NN(C(=O)c3ccncc3)C(c3ccccc3O)C2)cc1 (stereo unspecified)	0.7	4.8	.	0.7	i	8.7	8.0
Cn1ccnc1C(O)c1ccccc1 (stereo unspecified)	-2.1	-1.6	-1.9	0.652	.	-3.3	6.0
O=C(OCC#CCSc1nnc(-c2cccc3ccccc23)o1)c1cccc2[nH]ccc12	2.5	-17.4	2.2	0.73	i	-3.9	-6.5
COC(=O)c1ccccc1NC(=S)N(Cc1ccc2c(c1)OCO2)Cc1cc2cccc(C)c2[nH]c1=O	2.9	2.0	0.3	0.704	.	1.4	1.2
O=C(N/N=C/c1c[nH]c2ccccc12)c1ccn[nH]1	-4.5	.	39.0	.	i	1.0	-0.8
O=C(COC(=O)c1c2c(nc3ccccc13)/C(=C\c1cccs1)CCC2)Nc1ccccc1	1.1	-24.9	-8.4	0.732	i	4.1	12.8
COc1ccc(CNC(=O)CS(=O)CC(=O)O)cc1OC (stereo unspecified)	-2.0	0.0	3.3	0.71	i	2.8	-2.4
CC(/C=N/Nc1ccc2nncn2n1)=C\c1ccccc1	0.6	.	3.0	.	i	1.6	-0.6
COCCNC(=O)CCCn1c(=O)c2ccccc2n(CC(=O)NCCC2=CCCCC2)c1=O	.	1.1	.	0.731	.	0.2	-3.8
N=C1C(c2ccccc2)=C(O)CN1c1ccc2c(c1)OCO2	4.5	-0.6	.	0.699	i	-3.8	-0.4
CSc1ccc(/C=N/n2c(C)nnc2C)cc1	1.9	.	-0.1	.	i	3.3	-1.4
Cc1nc2ccccc2nc1N1CCCCC1	.	-1.5	.	0.743	.	-0.4	-1.4
CCC(C)[C@H](NC(=O)[C@@H]1Cc2ccccc2CN1)C(=O)Nc1ccc2c(c1)OCO2 (stereo partly specified)	-1.2	1.3	-27.2	0.627	i	-2.9	19.0
O=C(COc1ccc([N+](=O)[O-])cc1)Nc1ccc2[nH]c(=O)[nH]c2c1	1.0	4.6	-9.5	0.674	i	0.5	1.5
CCOc1cccc(/C=C/C(=O)O)c1	-5.0	-0.8	-2.6	0.707	i	-1.1	-5.1
CCOC(=O)c1cnn(-c2c(Cc3ccccc3)c(C)nc3c(-c4ccccc4)c(C)nn23)c1N	.	0.7	.	0.755	.	-2.2	35.7
COC(=O)c1ccc(N2CCN(C)CC2)c(NC(=O)COc2ccc(C)cc2)c1	-42.9	-1.8	-9.8	0.72	i	0.9	-0.8
Cc1ccc(C(=O)Nc2nnc(-c3ccncc3)s2)o1	-3.2	-22.1	.	0.715	i	2.5	0.4
Cn1c(=O)[nH]c(=O)c2c1nc(N1CCOCC1)n2CCc1ccccc1	-1.9	3.6	0.0	0.634	i	-1.1	-4.6
Cc1c(NC(=O)c2ccc3c4c(cccc24)CC3)c(=O)n(-c2ccccc2)n1C	-2.9	5.6	4.1	0.652	.	-0.4	-1.0
Cc1ccc(OCCN2CCN(C)CC2)c([N+](=O)[O-])c1	13.7	.	-2.4	.	i	0.3	5.9
Cc1ccc(Nc2nc(NCCCN3CCOCC3)nc(N)c2[N+](=O)[O-])cc1	-1.3	.	-5.6	.	i	-0.7	6.2
C[C@@H]1CN([C@H](C)CO)C(=O)c2cc(NC(=O)Nc3ccc(C(F)(F)F)cc3)ccc2O[C@H]1CN(C)S(=O)(=O)c1ccc(Cl)cc1	+	-0.4	1.8	0.692	i	3.2	-4.6
C[C@]12C(=O)N(c3ccc(Br)cc3)C(=O)N1[C@@H]1c3ccccc3OC[C@@H]1[C@H]2c1ccccc1	0.0	1.7	-3.3	0.752	i	-2.7	-2.5
CCC(C)(C)NC(=O)C(c1cccn1C)N(C(=O)Cn1nnc2ccccc21)c1ccc(F)cc1 (stereo unspecified)	1.4	4.4	-0.7	0.676	.	3.9	1.9
CCOc1ccccc1N(CC(=O)O)S(=O)(=O)c1ccc(C)cc1	-6.0	-1.5	1.9	0.673	.	3.0	1.8
CCn1c(CNC(=O)c2cccc(C)c2)nnc1SCC(=O)NC1CCCCC1C (stereo unspecified)	5.9	1.2	1.8	0.663	.	-1.5	-0.7
C=CCNS(=O)(=O)c1sccc1/C=N/O	-2.0	.	-1.9	.	.	-1.2	0.7
C[C@H]1C=C(C(=O)NCc2nc3ccccc3[nH]2)O[C@@H](OCCCCO)C1	-2.4	3.4	-4.9	.	.	0.4	-6.9
C#CCOCCOCCOCCNc1nc(N2CCN(C(=O)[C@H](CCCCN)n3cc(CN)nn3)CC2)nc(N2CCN(C(=O)[C@H](CCCCN)n3cc([C@@H](N)[C@H](C)CC)nn3)CC2)n1	-8.7	36.0*	-3.2	.	i	96.0*	2.7
CCOC(=O)CNC(=O)COc1coc(CN2CCN(c3ccccc3F)CC2)cc1=O	1.4	1.0	-9.7	0.685	i	0.6	5.0
COc1cc(CNCCc2ccccc2F)ccc1OCc1ccc(Cl)nc1	8.8	-0.1	0.5	0.692	.	2.7	-2.8
Nc1c(C(=O)NCc2ccccc2)sc2nc3c(cc12)C(=O)CCC3	-2.5	5.2	.	0.709	.	0.9	-7.0
N#C/C(=C(/O)C(Cl)c1ccccc1)c1nc2ccccc2s1 (stereo unspecified)	0.8	8.9	75.0	0.734	.	4.3	17.9
C=CCOC(=O)Nc1ccc(Cl)cc1NC(=O)OCC=C	-0.5	5.0	-10.2	0.681	.	-5.6	0.8
CC(C)(C)c1ccc(C2/C(=C(\O)c3ccc4c(c3)OCCO4)C(=O)C(=O)N2CCCN2CCOCC2)cc1 (stereo unspecified)	2.4	13.1	14.4	0.693	i	-2.5	1.0
CC(=O)c1ccc2c(c1)CCN2	.	7.4	.	0.654	i	3.0	8.6
CC(C)C(=O)N1CCN(CCN2C(=O)c3cccc4cccc(c34)C2=O)CC1	.	0.9	.	0.698	i	1.1	-3.5
Cc1ccc2oc(-c3ccc(C)c(NC(=S)NC(=O)c4cccs4)c3)nc2c1	-0.5	4.6	-4.8	0.748	i	4.6	-4.4
COc1ccccc1NC(C)=[N+](C)CCNS(=O)(=O)c1ccc(Cl)cc1	-8.8	4.9	3.4	0.727	i	0.1	-2.7
COc1ccc(C(c2c(C)[nH][nH]c2=O)c2c(C)[nH][nH]c2=O)cc1Br	4.4	7.2	47.1	0.683	i	1.8	5.2
COc1ccccc1NC(=O)c1cccc(NC(=O)c2ccco2)c1	2.2	-0.1	-7.8	0.782	.	-1.9	-3.0
O=C(CC1OC(=O)c2ccccc21)Nc1cc(Cl)ccc1N1CCCC1 (stereo unspecified)	2.3	-0.8	96.7*	0.634	i	5.7	-1.6
CCN(CC)C(=O)Cn1c(=O)n(Cc2ccccc2Cl)c2c1c(=O)n(C)c(=O)n2C	-10.9	0.2	2.1	0.59	.	-1.5	-8.4
CCOC(=O)c1nnn2c1nc(Nc1cccc(C(F)(F)F)c1)c1ccccc12	1.6	-335.8	-1.4	0.693	i	-3.4	-3.3
CC(C)n1cc(CN2CCC(C(=O)Nc3ccc(Oc4ccccc4F)cc3)CC2)cn1	-1.0	7.4	-55.1	0.705	i	-2.4	6.3
CCc1noc(C)c1C(=O)N(CCCOC)c1c(N)n(Cc2ccccc2)c(=O)[nH]c1=O	0.5	-0.8	-5.1	0.631	.	1.3	-8.8
COc1ccc(CCN2C(=O)CC(Cc3cccc(C)c3)C2=O)cc1OC (stereo unspecified)	2.1	2.0	0.7	0.661	i	3.5	-3.4
The list continues:
SMILES	LANA-H2B inh	UCH37 inh	ALR inh	E coli growth	FGF22 binding	HNF4A DNA FP	Beta2AR agonist
O=C(Cc1ccccc1)NCCCNC(=O)Cc1ccccc1	.	0.1	.	0.705	i	1.9	-5.0
CC(=O)Nc1c(Cl)cc2c(c1Cl)Cc1cc(N)ccc1-2	.	4.3	.	0.668	i	-2.2	28.5
Cc1nnc(NC(=O)C(C)Oc2ccc3c(C)cc(=O)oc3c2)s1 (stereo unspecified)	0.6	-5.2	-6.7	0.784	.	8.6	-9.1
O=C(Nc1cccc(Cn2cccn2)c1)c1cc2c(s1)CCCC2	2.3	0.0	48.7	0.642	.	2.5	-2.4
CSc1nc2nc(-c3ccccc3)cc(=O)n2[nH]1	-5.3	-2.9	2.5	0.69	.	-3.1	0.9
CC(C)N(C(=O)CN1C(=O)C(=O)c2ccccc21)c1ccccc1	9.6	-0.8	-3.5	0.69	i	4.5	5.1
Cc1ccccc1Cn1cc(NC(=O)CCCn2nc([N+](=O)[O-])cc2C)cn1	-0.5	2.5	.	0.705	i	-0.9	-3.5
Cc1nnc(SCC(=O)OC2CC(C)CCC2C(C)C)[nH]c1=O (stereo unspecified)	-1.0	2.1	2.2	0.71	.	0.7	11.7
COc1ccc(OCC(O)Cn2c(Br)nc3c2c(=O)[nH]c(=O)n3C)cc1 (stereo unspecified)	9.6	-9.2	7.6	0.724	.	-1.4	-6.9
O=C(O)c1ccccc1P(=O)(c1ccccc1)c1ccccc1	-1.5	1.6	-10.1	0.732	i	2.3	2.3
Cc1cc(=O)n2nc(N3CCC(C(=O)NCC(C)c4ccccc4)CC3)sc2n1 (stereo unspecified)	-1.0	2.4	0.6	0.656	i	5.3	-8.0
O=C1C=C(c2ccccc2C(F)(F)F)C[C@@H](c2ccc3c(c2)OCO3)C1	0.3	-0.7	-2.6	0.777	i	-8.0	2.2
Cc1ccc2nc3c(cc2c1)c(NC(=O)C(C)(C)C)nn3CC(C)C	-1.5	-63.4	-15.0	0.685	i	-1.9	2.2
N/C(=N\OC(=O)c1cccs1)c1cccc(Br)c1	1.3	-1.1	0.9	0.58	i	-0.6	-6.6
Cc1ccc(C)c(Nc2ncccc2C(=O)NCc2cccs2)c1	0.3	4.4	18.9	0.681	i	2.3	2.6
CC1=CC(C)(C)Nc2ccc(OC(=O)CN3C(=O)c4ccccc4C3=O)cc21	-0.8	-24.3	21.1	0.673	i	-1.7	1.0
O=C(CCC(F)(F)F)N1CCCC(N2CCN(c3cccc(Cl)c3)CC2)C1 (stereo unspecified)	4.4	.	.	.	i	-3.2	-6.5
COc1cccc(C(=O)NC2CCSC2=O)c1 (stereo unspecified)	-2.2	4.6	-9.8	0.704	.	3.3	-2.7

Screening results: PubChem BioAssay, several laboratories
